PABP FP inh: PABP-poly(A) binding inhibition; P11940; 290,000 tested, 1% active; inhibition, % at 35 µM; PABP-poly(A) RNA binding, fluorescence polarization; AID 2014;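 active = 50% or more with normal probe brightness, or confirmed in later tests; inconclusive = above 50% with abnormal brightness, or retests that disagree; inactive = below 50% or failed in later tests; about a fifth of its hits are not listed in these tables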;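 also: calls also rest on retests at 20 µM and on dose response follow-up; controls were probe without protein and protein plus probe with vehicle; some compounds called inactive have numbers as strong as hits; many hits fall short of the cut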
eIF4H FP inh: inhibitors of RNA binding by human eIF4H; eIF4H fluorescence polarization binding assay; Q15056; 290,000 tested, 0.94% active; inhibition, % at 35 µM;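 active = 50% or more with normal probe brightness, or confirmed in later tests; inconclusive = above 50% with abnormal brightness, or retests that disagree; inactive = below 50% or failed in later tests; about a fifth of its hits are not listed in these tables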;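 also: calls also rest on retests at 20 µM and on dose response follow-up; 0% = protein and probe with vehicle and 100% = probe without protein; strong numbers were not always called active; many hits fall short of the cut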
Rce1 inhib: blocks yeast Ras-converting enzyme; Q03530; yeast membranes, quenched prenylated peptide cleavage fluorescence; calls only; 290,000 tested, 0.27% active; AID 2563;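 active = fall in fluorescence gain of 50% or more versus controls, with final raw signal at or below 3038400; inconclusive = same 50% fall but final raw signal above 3038400; inactive = fall in fluorescence gain under 50%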;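 also: plate controls were neutral control wells for no effect and wells lacking membranes for full effect; tested at 10 µM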
Target sequence (Q03530 whole entry, looked up): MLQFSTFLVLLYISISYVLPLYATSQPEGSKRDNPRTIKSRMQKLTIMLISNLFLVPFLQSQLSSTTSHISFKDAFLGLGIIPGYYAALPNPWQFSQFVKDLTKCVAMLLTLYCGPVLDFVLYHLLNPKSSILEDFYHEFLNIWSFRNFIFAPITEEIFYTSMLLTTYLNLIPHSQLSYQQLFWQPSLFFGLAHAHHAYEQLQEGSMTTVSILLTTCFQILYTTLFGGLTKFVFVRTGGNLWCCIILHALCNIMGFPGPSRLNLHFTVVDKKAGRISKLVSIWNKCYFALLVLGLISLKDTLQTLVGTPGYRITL
CSC inhib: cancer stem cell inhibition. AID 2717. cancer stem cell-like cells viability, luminescence. inhibition, % at 7.5 µM. 300,000 tested, 1.1% active;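 active = mean at 75% or more and at least half the replicates too; inconclusive = mean and replicates disagree; tested in HMLE shEcad cells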;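 also: 0% = median of negative and 100% = median of positive control wells; the first replicate is given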
HIV Env fusion: blocks HIV Env-driven cell-cell fusion; HeLa-JRFL Env/CEM21 cell fusion, luciferase; inhibition, % at 12.3 µM; 360,000 tested, 1.1% active; AID 651610;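 active = mean replicate inhibition score of at least 50 and every replicate individually at or above 50; inconclusive = only one of the two criteria met; inactive = mean below 50 and not all replicates reaching 50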;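 also: 0% = plate neutral controls and 100% = maraviroc near 300 nM; one replicate is shown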
MT1-MMP act inh: MT1-MMP (human) activation inhibition; GFP/RFP ratio change, % at 20 µM; HT1080 RFP-PRO-GFP cells, GFP/RFP ratio fluorescence, overnight; percent of plate control window, DMSO zero; 360,000 tested, 0.061% active; P50281;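 active = GFP/RFP ratio change of at least 30% with cell ATP level not reduced by more than half and red fluorescence within 50% of control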; also: strong numbers were not always called active
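system = RFP-PRO-GFP reporter HT1080 cells | dosing = 20 µM single dose, 1% DMSO | timing = overnight cell settling, then overnight compound exposure, 37 °C, 5% CO2 | read-out basis = GFP/RFP fluorescence ratio | controls = DMSO and RFP-L50D-GFP cell wells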
Yeast UUG start: alters start codon recognition fidelity in yeast. S. cerevisiae UUG-firefly luciferase reporter, luminescence/redox ratio. activity score, % at 18.7 µM. 350,000 tested, 0.13% active;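 active = replicate mean at a twofold rise or more, about +100% in these data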;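 also: firefly luciferase made from a UUG start codon reports start codon fidelity; reporter light over untreated wells divided by growth signal over untreated wells; some hits fall short of that in this replicate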
MT1-MMP act inh RFP: second read-out of MT1-MMP act inh, no call of its own (marks repeat the call); RFP signal change, %; measured here: RFP expression control read;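 0 = vehicle wells; hits needed this value within 50% of zero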
The depositor's hits bear a star; i = inactive; ? = inconclusive; · = not tested or not shown. This is a subset (hit frequency here may not be typical).

SMILES | PABP FP inh | eIF4H FP inh | Rce1 inhib | CSC inhib | HIV Env fusion | MT1-MMP act inh | MT1-MMP act inh RFP | Yeast UUG start
Cc1ccc(C(=O)NCC(=O)NCC(=O)OCC(=O)c2ccc([N+](=O)[O-])cc2)cc1 | -2 | -13 | i | -8 | -2 | 1 | 3 | 6
Nc1ccc(C2CCCc3nonc32)c2nonc12 (stereo not drawn) | 26 | 22 | i | 1 | -38 | -7 | 0 | 0
Cc1cc2c(cc1C)CSC(c1ccccc1OC(=O)C(C)(C)C)SC2 | -12 | -7 | i | 8 | · | -8 | -4 | -10
OC(CNCC1CCCO1)Cn1c2ccc(Br)cc2c2cc(Br)ccc21 (stereo not drawn) | -9 | -9 | i | 116* | -18 | -6 | -6 | ·
O=C(CSc1nnc2ccccn12)N1CCc2ccccc2C1 | -3 | -2 | i | · | · | 0 | 5 | -7
CC1=NC(C#N)=C(C#N)NC(C)(C)C1 | -5 | 33 | i | -5 | -1 | 3 | 0 | -16
Cc1nc2ccccc2n1CC(O)COC1CCCCC1 (stereo not drawn) | -2 | -1 | i | -4 | · | 12 | -4 | -19
COc1cc(NC(=O)c2cccs2)c(OC)cc1NC(=O)CCC(=O)Nc1ccc2ncccc2c1 | -2 | -18 | i | · | -1 | 3 | -2 | ·
CC(C(=O)NCCN1CCOCC1)c1ccc([N+](=O)[O-])cc1 (stereo not drawn) | 3 | -4 | i | -11 | -4 | 0 | 5 | ·
CC(OC(=O)/C=C/c1ccco1)C(=O)NC1CCCCC1C (stereo not drawn) | · | · | · | · | 10 | 8 | -13 | -10
COc1cnc(-c2ccccc2)c(-c2ccccc2)n1 | · | · | i | -15 | 0 | 0 | 0 | -6
CCCSc1ccc([C@H]2N[C@@](Cc3ccccc3)(C(=O)OC)[C@H]3C(=O)N(CC)C(=O)[C@@H]23)cc1 | · | · | i | -2 | -60 | -1 | -4 | -6
Cc1ccc(S(=O)(=O)NCC(=O)N2CCC(C)CC2)cc1 | 1 | 0 | i | 0 | 3 | 0 | -1 | 15
O=C(CSc1nnc(-c2ccc3c(c2)OCCO3)o1)NC1CCCCC1 | -21 | -4 | i | -4 | · | · | · | ·
Cc1ccc(NC(=O)c2cnc(SCC(=O)NCC3CCCO3)n(C)c2=O)cc1C (stereo not drawn) | · | · | i | -3 | -22 | 2 | -1 | -37

Brought forward from above: four entries, then new ones.
SMILES | PABP FP inh | eIF4H FP inh | Rce1 inhib | CSC inhib | HIV Env fusion | MT1-MMP act inh | MT1-MMP act inh RFP | Yeast UUG start
CCCSc1ccc([C@H]2N[C@@](Cc3ccccc3)(C(=O)OC)[C@H]3C(=O)N(CC)C(=O)[C@@H]23)cc1 | · | · | i | -2 | -60 | -1 | -4 | -6
Cc1ccc(S(=O)(=O)NCC(=O)N2CCC(C)CC2)cc1 | 1 | 0 | i | 0 | 3 | 0 | -1 | 15
O=C(CSc1nnc(-c2ccc3c(c2)OCCO3)o1)NC1CCCCC1 | -21 | -4 | i | -4 | · | · | · | ·
Cc1ccc(NC(=O)c2cnc(SCC(=O)NCC3CCCO3)n(C)c2=O)cc1C (stereo not drawn) | · | · | i | -3 | -22 | 2 | -1 | -37
COc1ccc(OCc2cccc(C(=O)Nc3cc(C)on3)c2)cc1 | -1 | -3 | i | 6 | -43 | 2 | 1 | -26
CCN(CC)CCN(Cc1cc2cc3c(cc2[nH]c1=O)OCCO3)C(=S)NC | -9 | 0 | i | -6 | 3 | 1 | 2 | -6
O=C(O)COc1ccc(S(=O)(=O)N2CCCC2)cc1 | 9 | 0 | i | -7 | -2 | 0 | 1 | -15
COc1ccc(-c2csc(N(CC3CCCO3)C(=O)c3ccc(C)cc3)n2)cc1 (stereo not drawn) | 1 | 0 | i | · | 49* | -1 | -10 | -3
Cc1nc(N/C(N)=N/S(=O)(=O)c2ccc([N+](=O)[O-])cc2)nc2ccccc12 | -9 | 7 | i | 3 | -26 | 0 | 2 | -15
CCOC(=O)C(=O)NN=C(c1ccccc1)c1ccccc1 | 1 | 2 | i | -4 | -3 | -3 | 1 | 6
CCOC(=O)c1c(NC(=O)Cn2c(C)nc3ccccc32)sc2c1CCC2 | 0 | -4 | i | 11 | 56 | 0 | -12 | 0
COC1C/C(=N\O)C2OC(c3ccccc3)OCC2O1 (stereo not drawn) | -2 | 8 | i | 0 | -39 | 2 | 0 | 11
CCN(CC)C(=O)CN(C)S(=O)(=O)c1cccc2nsnc12 | -18 | -7 | i | 9 | -4 | 8 | 6 | -24
CN(C)CCCNc1nc2cc(-c3ccccc3)sc2c(=O)n1C | · | · | · | · | -12 | -1 | 5 | -7
Cc1ccc(S(=O)(=O)N(C)C)cc1NC(=O)Nc1ccccc1F | -3 | 13 | i | -11 | 16 | -4 | 2 | -15
Cc1ccc(-c2ccc(=O)n(CC(=O)Nc3cccc(C(=O)N4CCN(C)CC4)c3)n2)cc1 | -8 | -2 | i | 11 | -24 | -9 | -3 | ·
O=C(COC(=O)c1c2ccccc2cc2ccccc12)Nc1ncc(C(F)(F)F)cc1Cl | 10 | -2 | i | · | -25 | 0 | 0 | -20
Cc1ccc(NC(=O)CSCC(=O)N(C)Cc2ccc(Cl)c(Cl)c2)cc1 | · | · | · | · | 7 | -1 | -6 | -14
CCN(CC(=O)Nc1ccc(C)c(F)c1)CC(=O)NC(C)C | 8 | 2 | i | 6 | 2 | -3 | -1 | -6
C=CCN1c2ccccc2[C@]23C[C@@H](C(=O)OC)N(C(C)=O)C2=NC(C(=O)OC)=C(C(=O)OC)[C@H]13 | 2 | 0 | i | 13 | -1 | -5 | 1 | 4
O=C(NCCCN1CCOCC1)c1cc(-c2ccco2)nc2ccccc12 | · | · | · | -14 | · | -5 | 2 | -9
CC(=O)NN1C(=O)/C(=C\c2ccc(O)cc2)SC1=S | ? | ? | i | -9 | -8 | -28 | 4 | -12
CC1(C(=O)O)COC(c2ccc([N+](=O)[O-])cc2)OC1 (stereo not drawn) | 1 | 2 | i | · | 11 | -4 | 1 | -13
CCN(CC)CCNCc1cc(Br)ccc1OCC(=O)NCc1ccccc1 | 9 | -7 | i | 11 | 1 | 6 | 4 | ·
COc1cc2c(cc1O)CC[C@@H]1[C@@H]2CC[C@]2(C)[C@@H](O)CC[C@@H]12 | -4 | -11 | i | 53 | · | 0 | -13 | -1
CCc1ccc(NC(=O)Cn2nc(C)c([N+](=O)[O-])c2C)cc1 | -3 | -11 | i | 14 | -14 | 5 | 0 | -12
COc1cc(C(c2c(C)[nH][nH]c2=O)c2c(C)[nH][nH]c2=O)ccc1OCc1ccc([N+](=O)[O-])cc1 | -12 | 19 | i | 6 | -146 | 13 | -4 | -20
Cc1ccc(CN=C2NC(=O)C(CC(=O)NCCc3ccccc3)S2)cc1 (stereo not drawn) | -6 | 1 | i | 3 | · | 2 | 2 | ·
O=C(Nc1nc(-c2ccc(S(=O)(=O)N3CCCC3)cc2)cs1)C1COc2ccccc2O1 (stereo not drawn) | 2 | -9 | i | 15 | · | -3 | -15 | -22
COc1c(N)c2ccccc2[nH]c1=O | 1 | -9 | i | 19 | · | 4 | 8 | -22
CCN1CCN(C(=O)CN(CC)S(=O)(=O)c2ccc(Cl)cc2)CC1 | -11 | -2 | i | -6 | -18 | 0 | 3 | -13
COc1ccc(C2=COc3ccccc3C(=O)N2)cc1 | 1 | -4 | i | 7 | -6 | 2 | -2 | -14
CCCOC(=O)c1ccc(NC(=O)c2nc3nc(C)cc(C)n3n2)cc1 | -14 | 6 | i | -14 | -7 | 7 | 0 | -12
CC1=NC2(CCCc3c2no[n+]3[O-])N(O)C1(C)C (stereo not drawn) | 7 | 2 | i | -12 | · | -2 | 8 | -17
CCN(CC)S(=O)(=O)c1ccc2[nH]c(=O)cc(C(=O)Nc3ccccc3N3CCOCC3)c2c1 | · | · | · | -19 | · | 0 | 0 | -1
COc1ccc(C2c3ccsc3CCN2C(=O)C(C)(C)C)cc1 (stereo not drawn) | -1 | -3 | i | -10 | 12 | -1 | -5 | ·
Cc1ccc(NC(=O)COc2ccccc2[N+](=O)[O-])nc1 | -3 | -2 | i | 0 | -32 | -1 | 2 | -30
COc1ccccc1NC(=O)Cn1c(C)cc(=O)c2cccc(OC)c21 | -8 | -5 | i | -5 | -19 | -1 | -21 | -16
Cc1ccccc1-c1cc2c(c3c1ccn3C)C1CCC2C1 (stereo not drawn) | · | · | · | · | -17 | 3 | -4 | -14
Cn1c(NC(=S)Nc2ccccc2)nc2ccccc21 | -2 | -2 | i | -3 | · | 9 | 0 | ·
CC(C)(C)C1CCC(=NNc2ncc(C(F)(F)F)cc2Cl)CC1 (stereo not drawn) | -5 | 1 | i | 14 | -54 | 6 | 4 | -12
Cc1ccc(CN2CCN(/N=C/c3ccc(N(C)C)cc3)CC2)cc1 | 2 | 3 | i | 8 | 9 | 3 | -1 | 1
O=C(COC(=O)/C=C/c1ccc(OC(F)F)cc1)NCCN1C(=O)CSC1=O | 25 | -2 | i | -20 | -4 | -2 | 0 | ·
Cc1ccn(CC(=O)N/N=C/c2cc([N+](=O)[O-])ccc2O)n1 | 0 | 4 | i | · | 9 | 4 | 0 | -15
Cc1nnc(NC(=O)c2ccc3ccccc3c2)s1 | 4 | -9 | i | -3 | -144 | 1 | -3 | -19
Cc1nc(N2CCN(S(=O)(=O)c3ccccc3C#N)CC2)c2c(-c3cccs3)csc2n1 | 7 | -13 | i | 10 | 19 | -12 | -7 | ·
CC(=O)Nc1ccccc1-c1nc2ccc(C(=O)N3CCN(c4ccccc4)CC3)cc2[nH]c1=O | -20 | -19 | i | -3 | -21 | 3 | 7 | -5
Cc1nc2ccccc2n1C(C)c1ccccc1 (stereo not drawn) | -3 | -1 | i | -17 | 10 | -1 | -1 | -8
COc1ccc(NC(=O)CSc2nnc(NC(=O)c3ccc(S(=O)(=O)N4CCOCC4)cc3)s2)cc1 | 10 | 1 | i | -5 | -21 | 0 | -3 | -13
O=C(COC(=O)c1ccc2c(c1)C(=O)N(Cc1ccncc1)C2=O)Nc1ccccc1[N+](=O)[O-] | -8 | 41 | i | 5 | · | -1 | 1 | -12
CC(C)(C)NC(=O)C(c1ccncc1)N(C(=O)CNC(=O)c1ccco1)c1ccc2c(c1)OCO2 (stereo not drawn) | -5 | -6 | i | -11 | -19 | 0 | -2 | -12

Single entries from above.
Result of Cc1nnc(NC(=O)c2ccc3ccccc3c2)s1 in MT1-MMP act inh: 1
Result of Cc1ccccc1-c1cc2c(c3c1ccn3C)C1CCC2C1 (stereo not drawn) in HIV Env fusion: -17

Profiles as entered above. Values in the order: PABP FP inh	eIF4H FP inh	Rce1 inhib	CSC inhib	HIV Env fusion	MT1-MMP act inh	MT1-MMP act inh RFP	Yeast UUG start
Profile of Cc1nc2ccccc2n1C(C)c1ccccc1 (stereo not drawn) : -3	-1	i	-17	10	-1	-1	-8
Profile of O=C(COC(=O)/C=C/c1ccc(OC(F)F)cc1)NCCN1C(=O)CSC1=O : 25	-2	i	-20	-4	-2	0	·
Profile of Cn1c(NC(=S)Nc2ccccc2)nc2ccccc21 : -2	-2	i	-3	·	9	0	·
Profile of COc1ccccc1NC(=O)Cn1c(C)cc(=O)c2cccc(OC)c21 : -8	-5	i	-5	-19	-1	-21	-16
